# High-throughput results from PubChem BioAssay.
# A488 fluor: compound fluoresces in the A488 spectral region. compound autofluorescence, A488 spectral region, dye equivalency; hits give high values. max dye equivalency, M. 0.1% of 59,000 active; active = above 10 nM dye equivalent; inconclusive = 1 to 10 nM; inactive = 1 nM or less; about half of its hits are not listed in these tables;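 further: highest value over a series up to 38 µM; compound alone in buffer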
#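 Spectroscopic profiling in the A488 region: compounds in pH 8.0 Tris (100 mM), 15 min RT, CCD imaging with 480 nm excitation and 540 nm emission; responses normalized against A488 dye standards.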
# TSHR agonist: TSH receptor (human) agonism. P16473. HEK293-CNG-TSHR cells (CNG channel as cAMP sensor), membrane potential dye, cAMP. Potency, µM (doses to about 57.1 µM), for the others: top-dose activation, usual class: activators. 0.48% of 73,000 active; active = well fitted activation curve of enough size with the parental cells flat; inconclusive = any curve in the parental cells; inactive = parental cells flat and receptor cells flat or falling; further: potency means the concentration at half of the fitted maximal effect; % of control where 0% means no effect; weak receptor curves with flat parental cells got no call and are not listed
# Target sequence (P16473 whole entry, looked up): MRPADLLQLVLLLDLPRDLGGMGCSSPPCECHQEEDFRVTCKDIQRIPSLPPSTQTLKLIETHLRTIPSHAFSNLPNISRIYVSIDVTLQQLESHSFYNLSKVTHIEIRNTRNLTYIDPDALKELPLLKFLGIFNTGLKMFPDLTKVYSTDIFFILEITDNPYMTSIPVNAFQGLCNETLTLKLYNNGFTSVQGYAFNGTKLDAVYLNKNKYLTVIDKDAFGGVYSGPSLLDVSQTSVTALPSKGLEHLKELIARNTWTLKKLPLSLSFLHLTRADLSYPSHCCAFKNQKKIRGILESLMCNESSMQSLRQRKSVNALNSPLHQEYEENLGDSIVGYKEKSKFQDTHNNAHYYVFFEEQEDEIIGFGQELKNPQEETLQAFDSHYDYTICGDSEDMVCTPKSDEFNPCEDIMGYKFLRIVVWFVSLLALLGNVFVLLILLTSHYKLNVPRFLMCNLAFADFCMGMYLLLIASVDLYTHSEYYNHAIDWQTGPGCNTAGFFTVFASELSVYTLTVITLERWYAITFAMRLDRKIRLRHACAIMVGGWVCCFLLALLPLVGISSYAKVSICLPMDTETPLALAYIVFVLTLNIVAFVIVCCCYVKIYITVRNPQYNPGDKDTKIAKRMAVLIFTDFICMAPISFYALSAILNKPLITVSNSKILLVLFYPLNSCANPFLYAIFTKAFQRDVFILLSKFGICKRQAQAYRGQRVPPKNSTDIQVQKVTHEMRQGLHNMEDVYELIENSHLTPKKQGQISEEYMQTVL
#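 HEK 293 cells stably expressing TSHR and a modified CNG channel, with CNG-only parental cells as counterscreen, were preloaded 60 min at room temperature with membrane potential dye containing 100 uM RO 20-1724. Compound exposure was 30 min, and depolarization was read as fluorescence at 590 nm.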
# Resorufin fluor: compounds fluorescent in resorufin spectral region; Compound fluorescence, resorufin region 547/598 nm, buffer; hits give high values; AID 588; max dye-equivalent concentration, M; 0.04% of 59,000 active; active = above 10 nM dye equivalent; inconclusive = 1 to 10 nM; inactive = 1 nM or less; a few of its hits are not listed in these tables; further: highest value over a series up to 38 µM
#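 Read-out: intrinsic compound fluorescence at ex 547/em 598 nm after 15 min at RT in pH 8.0 Tris (100 mM). Values expressed as resorufin-equivalent concentration from per-plate standard series.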
# AID923: qHTS Assay for Allosteric/Competitive Inhibitors of Caspase-1: Spectroscopic Profiling in AFC Spectral Region; compound fluorescence, AFC spectral region (405/520 nm); almost no hit is shown here; Potency, µM (top dose mostly 57.5 µM), without a hit: at the top dose fluorescence increase, actives largely listed as activators; 1.1% of 75,000 active; AID 923, 2007; active means well fitted activation curve with a large enough effect; inconclusive means small, poorly fitted or top-dose-only effect;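 further: potency means the concentration at half of the fitted maximal effect; 0% is about no effect; scaled to a free AFC standard on each plate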
#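 Titrations up to 57 uM read every 20 sec for 3 min (405/520 nm) with 50 nM caspase 1 and 5 uM Ac-WEHD-AFC, pH 7.5 HEPES buffer. Fluorescence-vs-time intercept gave baseline, scaled against on-plate AFC standard.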
# A647 fluor: compound autofluorescence in A647 spectral region; Compound fluorescence, A647 channel (570/671 nm), Tris buffer; max dye-equivalent concentration, M; 59,000 tested, under 10 active; AID 592; active means above 1 µM dye equivalent; inconclusive means 0.1 to 1 µM; inactive means 0.1 µM or less;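 further: values scaled relative to a standard on each plate; highest value over a series up to 38 µM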
#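 Spectral profiling of library compounds in pH 8.0 Tris: 15 min room-temperature incubation, single ex/em pair (570/671 nm), response normalized to Alexa 647 equivalents.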
# * marks the source's active call; other numbers are inactive results; i = inactive; ? = inconclusive; / = no result given; [ ] = dose if it differs, or a comment. The list is partial; count on the stated rates, not on these rows.
SMILES,A488 fluor,TSHR agonist,Resorufin fluor,AID923,A647 fluor
COc1cc(NC(=O)c2cc3c(=O)n(C)c4ccccc4c3n2C)cc(OC)c1OC,/,3%,/,-0.7%,/
CN(CC(=O)N1CC(=O)N(CCc2ccccc2)C(=O)C1)S(=O)(=O)c1cccc2nsnc12,i,-9%,i,0.8%,3.3e-08
O=C(CC1SCCNC1=O)Nc1cccc(C(F)(F)F)c1 (stereo not drawn),i,-7%,i,1.0%,1e-09
CCOc1ccc(NC(=O)CSc2nnc(C)n2CCCOC)cc1,i,2%,i,-1.2%,3e-08
Cc1onc(-c2ccccc2)c1C(=O)Nc1cccc(C#N)c1,/,3%,/,0.5%,/
CC(=O)Nc1cccc(NC(=O)CSc2nc(C)c(C)c(C)c2C#N)c1,i,/,i,/,?
Cc1onc(-c2ccccc2Cl)c1C(=O)Nc1ccc(S(=O)(=O)NCC2CCCO2)cc1 (stereo not drawn),i,-8%,i,2.2%,1.9e-08
N#Cc1cccc(NC(=O)N2CC[C@@]3(CCCN(C(=O)c4cccc(F)c4)C3)C2)c1,i,?,i,-1.9%,1.4e-08
COc1ccccc1CN(C)C(=O)C1COc2ccccc2O1 (stereo not drawn),i,9%,i,-0.4%,1.6e-09
Cc1noc(C)c1-c1nccc(N(C)Cc2ccco2)n1,i,9%,i,-0.2%,1e-09
Cc1c(N(C(=O)c2cc(=O)[nH]c3ccccc23)C(C)C)c(=O)n(-c2ccccc2)n1C,i,18%,i,1.4%,1.9e-08
CC1=C(SCCC#N)S/C(=C2\SC(C)=C(SCCC#N)S2)S1,i,?,i,3.0%,5.7e-08

# Three successive records out of the list so far, for reference:
SMILES,A488 fluor,TSHR agonist,Resorufin fluor,AID923,A647 fluor
Cc1noc(C)c1-c1nccc(N(C)Cc2ccco2)n1,i,9%,i,-0.2%,1e-09
Cc1c(N(C(=O)c2cc(=O)[nH]c3ccccc23)C(C)C)c(=O)n(-c2ccccc2)n1C,i,18%,i,1.4%,1.9e-08
CC1=C(SCCC#N)S/C(=C2\SC(C)=C(SCCC#N)S2)S1,i,?,i,3.0%,5.7e-08

# (listing goes on)
SMILES,A488 fluor,TSHR agonist,Resorufin fluor,AID923,A647 fluor
CC(=O)N1CCc2cc(S(=O)(=O)CCC(=O)NCc3ccc4c(c3)OCO4)ccc21,i,5%,i,-0.1%,6.9e-09
CSC1=NCCN1C(=O)c1ccc(S(=O)(=O)N2CCCC2)cc1,/,-3%,/,3.1%,/
c1ccc(Cn2nnnc2C(c2cccnc2)N2CCN(C3CCCCC3)CC2)cc1 (stereo not drawn),i,-3%,i,1.4%,1e-09
Oc1cccc(C(=S)N2CCN(Cc3ccccc3)CC2)c1,i,-17%,i,-0.6%,4e-09
CCCc1[nH]nc2c1C(c1cn[nH]c1-c1ccc(F)cc1)C(C#N)=C(N)O2 (stereo not drawn),i,-2%,i,-1.7%,5e-09
CCOC(=O)c1c(C)n(C)c2c(C)cc(O)c(OC(=O)CC)c12,/,-6%,/,-0.9%,/
CN(C)C(=O)N1CCC(C(=O)NCc2ccccc2)CC1,i,-8%,i,-0.8%,3.8e-09
CC(=O)c1ccc(NC(=O)CSc2nnc(NC(=O)CN3CCOCC3)s2)cc1,i,-12%,i,1.3%,5.5e-09
O=C(CN1CCN(Cc2ccccc2Cl)C1=O)N1CCCCCC1,i,8%,i,0.4%,6.7e-09
CCc1nn2c(N3CCOCC3)cc(C)nc2c1-c1ccc(F)cc1,i,-13%,i,0.2%,1.3e-09
O=C1c2ccccc2C(=O)N1CC1c2ccccc2CCN1S(=O)(=O)c1cnc[nH]1 (stereo not drawn),i,5%,i,0.6%,1e-09
COc1ccc(CCN2C(=O)CC(Sc3ncccc3C(=O)O)C2=O)cc1OC (stereo not drawn),i,2%,i,-1.0%,6.5e-09
Cc1nc(NC2=NCN(CCc3ccccc3)CN2)nc2c(C)cccc12,i,6%,i,-2.3%,1.4e-08
O=C(Nc1ccc2c(c1)OCCO2)c1ccncc1,i,-6%,i,1.9%,1e-09
CC1Cc2nc(SCC(=O)Nc3ccc4c(c3)OCO4)n(-c3ccc(F)cc3)c(=O)c2S1 (stereo not drawn),/,6%,/,5.0%,/
CCCCN=C(C)c1c(O)c2ccccc2oc1=O,/,14%,/,-0.4%,/
O=C(Cc1ccccc1)Nc1cccc(-c2nc3ncccc3o2)c1,i,14%,i,-1.3%,8.1e-09
Cc1ccc(NC(=O)CCC(=O)O)cc1F,i,-2%,i,0.9%,1e-09
COc1ccc(OC)c(N(CC(=O)N2CCCC2)S(=O)(=O)c2ccc(OC)c(OC)c2)c1,i,0%,i,0.2%,1e-09
COc1ccc(OC)c(C2NC(=O)c3sc(=S)n(-c4ccccc4)c3N2)c1 (stereo not drawn),i,/,i,/,2.2e-09
N#Cc1cccc(C(c2nnnn2Cc2ccccc2)N2CCCC2)c1 (stereo not drawn),i,6%,i,4.4%,1e-09
O=C(CCCC(=O)N(CC(=O)NC1CCCC1)Cc1ccccc1Cl)Nc1ccccn1,i,?,i,-1.7%,4.4e-08
COc1ccc(/C(N)=C/C(=O)C(C)(C)C)cc1,/,2%,/,-0.2%,/
CCOC(=O)CN1C(=O)C(O)(c2c(C)[nH]c3ccccc23)c2ccccc21 (stereo not drawn),i,-12%,i,2.0%,2.5e-09
N=C(N)SCc1ccc(Cl)cc1Cl (tested in a mixture with another compound),i,10%[11.4 µM],i,-2.6%[11.5 µM],2.7e-08
C=CCSc1ncccc1C(=O)O,i,-5%,i,0.2%,1e-09
CCOC(=O)c1cnn(CCOC(=O)c2cccs2)c1NC(=O)c1cccs1,i,14%,i,1.0%,1e-09
Cn1cccc1C(=O)N1CCC2(CC1)CN(c1ccncc1)C2,i,5%,i,4.5%,7.9e-09
CCOC(=O)N1CCC(N2CC34C=CC(O3)C(C(=O)O)C4C2=O)CC1 (stereo not drawn),/,5%,/,-0.9%,/
CC(=O)Nc1cccc2c1C(=O)NC2=O,i,5%,i,-0.9%,3.4e-08
O=c1[nH]c2cc3c(cc2cc1CN(CC1CCCO1)S(=O)(=O)c1ccc(Cl)cc1)OCCO3 (stereo not drawn),i,23%,i,10%,1.2e-08
Cc1ccc(C(=O)N(CN2CCCC2=O)c2ccccc2)cc1C,i,14%[11.4 µM],i,0.1%,2.3e-08
CCOC(=O)c1cc2c(n(-c3ccccc3)c1=O)CC(C)(C)CC2=O,i,19%,i,-2.0%,1e-08
FC(F)(F)c1ccccc1-c1ccc2ncnc(N3CCOCC3)c2c1,i,?,i,-0.6%,2.6e-09
CC(=O)c1cccc(N(CC(=O)Nc2cccnc2)S(C)(=O)=O)c1,i,6%,i,0.0%,6e-09
O=C(CS(=O)(=O)c1cn(Cc2ccccc2Cl)c2ccccc12)N1CCOCC1,i,2%,i,0.9%,1e-09
CCOC(=O)C1CCN(CC(O)COc2ccc(C(C)=O)cc2)CC1 (stereo not drawn),/,4%,/,0.9%,/
Cc1ccccc1-n1c(=O)cc(N2CCN(C(=O)c3ccco3)CC2)[nH]c1=O,/,0%,/,2.4%,/
CC(C)(CN=C1NS(=O)(=O)c2ccccc21)CNC(=O)CN1C(=O)c2ccccc2C1=O,i,-49%[inhibitor],i,0.2%,1.6e-08
Cc1ccc(N2CCN(c3ccc(C)cc3)C(CC(=O)O)C2=O)cc1 (stereo not drawn),i,-14%,i,2.2%,1e-09
Fc1cc(F)c2nc(N3CCOCC3)sc2c1,i,-5%,i,-0.3%,3.9e-08
CCC(=O)Nc1sc(C(=O)OC)c(C)c1C(=O)OC,i,?,i,-0.3%,1e-09
C[C@H](C[C@H](N)C(=O)O)C(=O)O,/,2%,/,-1.2%,/
CCN1C=C(Cc2cccs2)C2=C(C1)C(c1cccs1)C(C#N)=C(N)O2 (stereo not drawn),i,?,i,8.3%,7e-09
CC(=O)Nc1sc(NC(=O)c2ccccc2)nc1-c1cccs1,i,-11%,i,-1.5%,1.6e-08
c1ccc(Cc2nnc(-c3ccccc3)o2)cc1,i,?,i,0.5%,3.9e-08
CC(C)Oc1ccc(Cc2c(O)nc(NCCCN(C)C)[nH]c2=O)cc1,i,/,i,/,1e-09
CCOC(=O)c1ccc(NC(=O)CCc2nc(-c3ccccc3Cl)no2)cc1,i,?,i,-0.2%,3.3e-08

# Part of the list above, with values under each structure:
# Each structure is followed by: A488 fluor, TSHR agonist, Resorufin fluor, AID923, A647 fluor
CC(C)(CN=C1NS(=O)(=O)c2ccccc21)CNC(=O)CN1C(=O)c2ccccc2C1=O
  i, -49%[inhibitor], i, 0.2%, 1.6e-08
Cc1ccc(N2CCN(c3ccc(C)cc3)C(CC(=O)O)C2=O)cc1 (stereo not drawn)
  i, -14%, i, 2.2%, 1e-09
Fc1cc(F)c2nc(N3CCOCC3)sc2c1
  i, -5%, i, -0.3%, 3.9e-08
CCC(=O)Nc1sc(C(=O)OC)c(C)c1C(=O)OC
  i, ?, i, -0.3%, 1e-09

# The list goes on:
SMILES,A488 fluor,TSHR agonist,Resorufin fluor,AID923,A647 fluor
CC(=O)N[C@H]1C[C@@H]1c1ccccc1,i,/,i,/,7.5e-08
COc1ccc(-c2nc(C#N)c(N3CCOCC3)o2)cc1OC,i,6%,i,0.6%,2.6e-08
Cc1nn(-c2ccccc2)c(C)c1CCC(=O)O,/,0%,/,-0.9%,/
CCCCCN(C(=O)NC(=O)Nn1cnnc1)S(C)(=O)=O,i,-4%[11.4 µM],i,-1.2%,1.1e-09
Cc1ccccc1-c1ccc(=O)n(CC(=O)Nc2ccc(N3CCOCC3)cc2)n1,i,-6%,i,0.8%,3.9e-08
CC(=O)Nc1nc(C)nc(C)c1C(C)=O,i,-1%[11.4 µM],i,0.5%,6.9e-09
NCC(O)COCCC12CC3CC(CC(C3)C1)C2 (stereo not drawn),i,-13%,i,-0.7%,1e-09
Cn1ccnc1SCCC#N,i,/,i,/,2.5e-08
CCC(=O)N1CCc2cc(S(=O)(=O)NC(C(=O)NCc3ccccc3)C(C)C)ccc21 (stereo not drawn),i,0%,i,1.2%,7.1e-09
CN(C)c1ccc(/C(=N\O)C(F)(F)F)cc1,/,4%[11.4 µM],/,-1.3%,/
CCN(CCO)C(=O)C12CCC(C)(C(=O)C1)C2(C)C (stereo not drawn),i,11%,i,-2.5%,1e-09
CN(C)C(=O)CN(C)S(=O)(=O)c1ccc(Cl)cc1,i,5%,i,1.5%,3.3e-09
CCn1c(C)c(C(C)=O)c(N2CCCCC2)nc1=S,i,-4%[11.4 µM],i,1.0%,1e-09
CCOC(=O)N1CCN(C(=O)c2ccc3nc(N4CCCCC4)sc3c2)CC1,i,2%,i,-0.8%,1e-08
O=C(CN(Cc1cccs1)C(=O)CNS(=O)(=O)c1ccc(F)cc1)NCc1ccco1,i,?,i,-0.4%,1.8e-08
CN(C)CCNc1ncnc2ccccc12,i,2%,i,0.6%,1e-09
CC(C)(CO)NCc1ccccc1OCC(=O)Nc1ccccc1,i,4%,i,2.8%,3.3e-08
CC(C)c1ccc(NC(=O)C2CCCCC2C(=O)O)cc1 (stereo not drawn),/,6%[11.4 µM],/,-0.4%,/
CCN(CC)CCN1C(=O)c2ccccc2NC1c1cc(OC)c(OC)c(OC)c1 (stereo not drawn),i,/,i,/,1e-09
CCOC(=O)Cn1c(CN2CCOCC2)nc2c1c(=O)n(C)c(=O)n2C,/,-1%,/,-1.8%,/
CCCCn1nnnc1NCc1cccs1,i,-9%,i,1.4%,1.5e-09
O=C1CC(c2ccc(S(=O)(=O)NCc3ccccc3)cc2)CN1 (stereo not drawn),/,5%,/,-2.1%,/
O=C(CCn1nnc(-c2cccs2)n1)NCc1ccccc1Cl,i,14%[11.4 µM],i,-1.9%,1e-09
COc1nc(-c2ccccc2)ccc1-c1noc(COc2ccccc2)n1,i,?,i,8.0%,2.3e-08
C=CCn1c(SCC(=O)/C(C#N)=C(\C)N)nc2sc(CC)cc2c1=O,i,17%,i,-0.2%,2.6e-08
CN(CC(=O)Nc1ccc(F)c(F)c1)S(=O)(=O)c1cccc2nsnc12,i,-11%,i,0.4%,1e-09
